MT1-MMP act inh – blocks activation of human MT1-MMP; GFP/RFP ratio change, % at 20 µM; P50281; HT1080 RFP-PRO-GFP cells, GFP/RFP ratio fluorescence, overnight; percent of plate control window, DMSO zero; hit rate 0.061% among 360,000;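 active = GFP/RFP ratio change of at least 30% with cell ATP level not reduced by more than half and red fluorescence within 50% of control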; note: strong numbers were not always called active
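Assay system: RFP-PRO-GFP reporter HT1080 cells; read-out basis: GFP/RFP fluorescence ratio; benchmarks: DMSO wells and RFP-L50D-GFP cells; doses: 20 µM single dose, 1% DMSO; schedule: overnight cell settling, then overnight compound exposure, 37 °C, 5% CO2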
Rce1 inh – inhibitors of yeast Ras-converting enzyme; AID 2563; hit rate 0.27% among 290,000; calls only; Q03530; yeast membranes, quenched prenylated peptide cleavage fluorescence;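 active = fall in fluorescence gain of 50% or more versus controls, with final raw signal at or below 3038400; inconclusive = same 50% fall but final raw signal above 3038400; inactive = fall in fluorescence gain under 50%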;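 note: plate controls were neutral control wells for no effect and wells lacking membranes for full effect; tested at 10 µM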
CSC inhib – blocks cancer stem cells | hit rate 1.1% among 300,000 | cancer stem cell-like cells viability, luminescence | inhibition, % at 7.5 µM | AID 2717;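 active = mean at 75% or more and at least half the replicates too; inconclusive = mean and replicates disagree; tested in HMLE shEcad cells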;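 note: 0% = median of negative and 100% = median of positive control wells; the first replicate is given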
UUG fidelity – yeast start codon fidelity modulation. hit rate 0.13% among 350,000. AID 602363. S. cerevisiae UUG-firefly luciferase reporter, luminescence/redox ratio. activity score, % at 18.7 µM;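 active = replicate mean at a twofold rise or more, about +100% in these data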;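 note: firefly luciferase made from a UUG start codon reports start codon fidelity; reporter light over untreated wells divided by growth signal over untreated wells; some hits fall short of that in this replicate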
PABP FP inh – blocks human PABP binding to poly(A) RNA; P11940; fluorescence polarization; inhibition, % at 35 µM; hit rate 1% among 290,000;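 active = 50% or more with normal probe brightness, or confirmed in later tests; inconclusive = above 50% with abnormal brightness, or retests that disagree; inactive = below 50% or failed in later tests; about a fifth of its hits are not listed in these tables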;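 note: calls also rest on retests at 20 µM and on dose response follow-up; controls were probe without protein and protein plus probe with vehicle; some compounds called inactive have numbers as strong as hits; many hits fall short of the cut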
Target sequence (P11940 whole entry, looked up): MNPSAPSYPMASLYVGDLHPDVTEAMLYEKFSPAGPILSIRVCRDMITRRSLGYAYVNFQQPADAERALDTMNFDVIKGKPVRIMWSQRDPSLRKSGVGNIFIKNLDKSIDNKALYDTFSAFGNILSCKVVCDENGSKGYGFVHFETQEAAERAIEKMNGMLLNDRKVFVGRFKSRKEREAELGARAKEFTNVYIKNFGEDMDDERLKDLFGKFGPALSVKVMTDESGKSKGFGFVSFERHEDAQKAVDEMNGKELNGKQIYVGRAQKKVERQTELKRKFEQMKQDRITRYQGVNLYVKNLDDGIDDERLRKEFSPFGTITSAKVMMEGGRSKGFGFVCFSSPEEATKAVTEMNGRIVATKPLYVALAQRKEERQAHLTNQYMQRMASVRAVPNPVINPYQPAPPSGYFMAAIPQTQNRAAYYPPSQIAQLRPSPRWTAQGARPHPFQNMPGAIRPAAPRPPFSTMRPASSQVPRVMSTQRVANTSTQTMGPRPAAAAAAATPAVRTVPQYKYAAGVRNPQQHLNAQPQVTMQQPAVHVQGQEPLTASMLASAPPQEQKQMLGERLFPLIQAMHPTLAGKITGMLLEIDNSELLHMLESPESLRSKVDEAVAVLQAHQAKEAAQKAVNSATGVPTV
eIF4H FP inh – inhibitors of RNA binding by human eIF4H; Q15056; inhibition, % at 35 µM; AID 2012; eIF4H fluorescence polarization binding assay; hit rate 0.94% among 290,000;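 active = 50% or more with normal probe brightness, or confirmed in later tests; inconclusive = above 50% with abnormal brightness, or retests that disagree; inactive = below 50% or failed in later tests; about a fifth of its hits are not listed in these tables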;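 note: calls also rest on retests at 20 µM and on dose response follow-up; 0% = protein and probe with vehicle and 100% = probe without protein; strong numbers were not always called active; many hits fall short of the cut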
HIV Env fusion – inhibitors of HIV Env-mediated cell fusion; HeLa-JRFL Env/CEM21 cell fusion, luciferase; inhibition, % at 12.3 µM; hit rate 1.1% among 360,000; AID 651610;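 active = mean replicate inhibition score of at least 50 and every replicate individually at or above 50; inconclusive = only one of the two criteria met; inactive = mean below 50 and not all replicates reaching 50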;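 note: 0% = plate neutral controls and 100% = maraviroc near 300 nM; one replicate is shown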
eIF4H FP inh retest – further read-out of eIF4H FP inh, marked with its call; inhibition, %; compound at 20 µM; confirmation average;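 mean of two retest wells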
PABP FP inh retest – second read-out of PABP FP inh, no call of its own (marks repeat the call); inhibition, %; compound at 20 µM; confirmation repeats;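 mean of two retest wells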
MT1-MMP act inh RFP – second read-out of MT1-MMP act inh, no call of its own (marks repeat the call); RFP signal change, %; measured here: RFP expression control read;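 0 = vehicle wells; hits needed this value within 50% of zero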
Active calls of the source: *; i = inactive; ? = inconclusive; . = not tested or not shown; + = active, no number.

SMILES	MT1-MMP act inh	MT1-MMP act inh RFP	Rce1 inh	CSC inhib	UUG fidelity	PABP FP inh	eIF4H FP inh	HIV Env fusion	others
O=C(N/C(=C/C=C/c1ccccc1)C(=O)N1CCOCC1)c1ccccc1Br	0	3	i	0	.	40	6	3
CN(C)S(=O)(=O)c1ccc(C(=O)NC(=O)CSc2nnnn2C)cc1	-1	-1	.	-4	-14	.	.	2
C[C@@H]1NC(=O)[C@H](CCC(N)=O)NC(=O)c2cc([N+](=O)[O-])cc(I)c2NCC[C@@H](C(N)=O)NC1=O	.	.	.	-13	.	7	-1	.
COc1cccc(N2CC(C(=O)Nc3nnc(SCCC4OCCO4)s3)CC2=O)c1 (stereo not drawn)	0	-1	i	-8	-17	0	8	35
CC(CCc1ccccc1)OS(N)(=O)=O (stereo not drawn)	-2	-1	i	-21	-16	13	5	8
O=C(CCC(=O)c1cccs1)Nc1nc2ccccc2s1	-1	1	i	-16	-19	.	.	-22
NC(=S)N/N=C/c1cccc(O)c1O	-6	-6	i	-6	.	-2	5	-56
COc1cc2c(cc1NC(=O)CSc1nnc(COc3ccc(Cl)cc3)n1C)oc1ccccc12	-6	-6	i	-2	-9	-2	13	?
Cc1cccc(C)c1NC(=O)CCCn1nc(C)c2c(C)n(-c3ccccc3)nc2c1=O	-2	-1	i	-9	-5	1	-13	5
C/C(=N\NS(=O)(=O)c1ccc(C)c([N+](=O)[O-])c1)c1ccc2c(c1)OCO2	2	-1	i	-7	.	-1	10	4
Cc1ccc(Cl)cc1N1CCN(C(=O)Cc2c(C(=O)O)[nH]c3ccccc23)CC1	10	4	i	-1	-6	13	12	.
O=C(NNC(=O)c1ccccc1F)c1ccc(S(=O)(=O)N2CCCC2)cc1	6	-4	.	-12	-5	.	.	-38
COc1cc(CN/C(C)=C(\C#N)C(N)=O)cc(OC)c1OC	3	5	i	-14	-17	8	-3	-42
CC(=O)Nc1ccc(NC(=O)COC(=O)CCc2nc3ccccc3s2)cc1	3	3	i	9	-19	-7	9	-6
O=C(Nc1ccc(N2CCOCC2)cc1N1CCOCC1)c1ncoc1-c1cccc(F)c1	1	1	i	.	1	-1	-12	5
CCOc1ncc(S(=O)(=O)N2CCN(CC)CC2)cc1C(=O)O	-2	2	i	-9	10	1	-15	-10
COc1ccc(C2/C(=C(/O)c3ccccc3)C(=O)C(=O)N2CC(C)O)c(OC)c1 (stereo not drawn)	5	1	i	-2	-18	-4	-13	-68
CCn1nc(C)cc1Nc1ccccc1	-2	5	i	7	-14	0	-7	-35
Cc1ccc(CNC(=O)CN2C(=O)CSc3ccc(S(=O)(=O)N4CCCCC4)cc32)cc1	2	3	i	-11	-19	.	.	2
CC(C)NC(=O)CN1CCC(c2ccccc2)C(O)C1 (stereo not drawn)	-2	-1	.	-9	.	0	1	-10
O=S(=O)(NCc1ccccc1)c1cccc2nsnc12	9	3	i	.	-11	-7	-2	2
Cc1ccc(S(=O)(=O)NC(=NCC(=O)O)c2ccc(F)cc2)cc1	7	4	i	-10	3	17	7	12
O=C(NCc1ccc(N2CCCC2=O)cc1)c1cc(COc2c(F)cccc2F)on1	1	-2	i	2	-13	-9	5	-15
CC(=O)SCC[N+](C)(C)C	3	3	i	2	15	6	-2	-14
Cc1[nH]c2ccccc2c(=O)c1CN(C)Cc1ccccc1	-1	0	i	.	-10	-5	-5	.
Cc1nnc(Sc2nc3ccccc3o2)c2ccccc12	4	3	i	4	-5	1	0	.
CC(=O)C1C(c2cccc(F)c2)c2c(n[nH]c2C)CC1(C)O (stereo not drawn)	0	-3	i	7	.	-4	5	-1
O=Cc1ccc(N2CCCC2)o1	-5	0	.	-2	.	-14	2	9
CCCCNC(=O)COC(=O)c1cc2c(C)nn(-c3ccccc3)c2s1	-6	-6	i	-6	.	7	-14	.
Cc1ccc(S(=O)(=O)Oc2ccc(/C=C3\N=C(c4cccc(C)c4)OC3=O)cc2)cc1	-2	4	i	-5	-7	2	-3	-59
COc1ccnc(Oc2ccc(Cl)cc2)c1C#N	7	1	i	-1	.	10	7	3
COc1cc(C(=O)NCc2nnc(SCC(=O)Nc3nccs3)o2)cc(OC)c1OC	-1	1	i	3	.	-12	8	-9
COC(=O)c1ccccc1NC(=O)c1cccnc1	1	3	i	0	-13	7	0	-45
Cc1nc(C)c(C(=O)N/N=C/c2cn(C)c3ccccc23)s1	6	0	.	4	-25	-5	-12	30
CC1(C(=O)Nc2ccc3nc[nH]c3c2)CCN1C(=O)c1ccccc1CCc1ccccc1 (stereo not drawn)	-2	1	.	.	-3	.	.	-9
c1ccc(-c2ccc3c(c2)NC(C2Nc4cc(-c5ccccc5)ccc4O2)O3)cc1 (stereo not drawn)	3	2	i	8	-18	2	-5	4

Overlap with the part before: 2 compounds, then new ones.
SMILES	MT1-MMP act inh	MT1-MMP act inh RFP	Rce1 inh	CSC inhib	UUG fidelity	PABP FP inh	eIF4H FP inh	HIV Env fusion	others
CC1(C(=O)Nc2ccc3nc[nH]c3c2)CCN1C(=O)c1ccccc1CCc1ccccc1 (stereo not drawn)	-2	1	.	.	-3	.	.	-9
c1ccc(-c2ccc3c(c2)NC(C2Nc4cc(-c5ccccc5)ccc4O2)O3)cc1 (stereo not drawn)	3	2	i	8	-18	2	-5	4
O=C(c1cc(-c2cccs2)on1)N1CCN(C(c2ccccc2)c2ccccc2)CC1	-10	-6	i	49	-13	-17	-1	12
Cn1c(=O)c2sccc2n2c(CCCC(=O)Nc3ccc(F)cc3F)nnc12	4	2	i	-8	5	14	2	0
COc1ccc2[nH]c3c(c2c1)CCN1C(=O)C(CC(=O)NCc2cccc(C(F)(F)F)c2)C[C@H](C(=O)N2CCOCC2)[C@@]31C (stereo partly drawn)	5	2	.	.	-22	.	.	-24
Oc1ccc(O)c(/C(=N/Nc2ccccc2)c2ccccc2)c1	.	.	i	1	.	4	-1	.
Cc1ccc(NC(=O)COC(=O)c2cc(Cl)ccc2[N+](=O)[O-])cc1	1	2	i	-7	.	-5	-14	10
Cc1ccc(OCC2Cn3c(nc4c3c(=O)n(C)c(=O)n4C)O2)cc1 (stereo not drawn)	5	-3	i	-1	-15	10	-3	.
CCOC(=O)N/N=C1\CCS(=O)(=O)c2ccc(Cl)cc21	0	-4	i	-12	.	47	52	16	eIF4H FP inh retest=30;PABP FP inh retest=18
Cc1occc1-c1nnc(SCC(=O)c2c(N)n(Cc3ccccc3)c(=O)n(C)c2=O)n1C	0	1	i	-9	-6	-3	-6	-7
COc1ccc(-c2csc(CCn3nc(C)cc3C)n2)cc1OC	0	-1	i	-2	-14	5	-11	4
CCNc1nc2c(c(=O)n(Cc3ccccc3)c(=O)n2C)n1Cc1ccccc1	13	-7	i	-13	6	-6	-1	.
Cc1ccc(S(=O)(=O)N(C)C)cc1NC(=O)COC(=O)/C=C/c1ccc2ccccc2n1	2	-3	i	-6	.	.	.	-27
Cc1ccc(S(=O)(=O)N(CC(=O)NN=C2CCN(C)CC2)c2ccc(C(C)C)cc2)cc1	0	3	i	-3	-16	-8	7	-8
CN(C)S(=O)(=O)c1cccc(NC(=O)CCNC(=O)Nc2ccccc2)c1	4	0	.	-17	.	.	.	13
Cc1c(NC(=O)Nc2ccccc2Cl)c(=O)n(-c2ccccc2)n1C	3	6	i	.	.	-8	-7	12
Cc1noc(C)c1CSCC(=O)Nc1ccccc1N1CCCC1	-1	3	.	.	-26	.	.	4
COc1ccccc1N(CC(=O)Nc1ccc(S(=O)(=O)N2CCCCC2)cc1)S(C)(=O)=O	10	6	i	-14	18	-8	-10	22
CC1(C)CC(=O)C2=C(C1)OC(c1ccc(O)cc1)C(C#N)=C2N (stereo not drawn)	6	8	i	-2	-9	-20	-10	.
CNC(=O)c1snnc1-c1ccccc1	3	6	i	3	-12	-5	0	.
COc1ccc([C@@H]2[C@@H]3C(=O)N(C(C)(C)C)C(=O)[C@@H]3[C@]3(Cc4ccccc4)C(=O)N(c4ccc(C)cc4)C(=O)N23)cc1	-3	-4	i	-17	-5	.	.	2
O=C(/C=C/c1ccc(F)cc1)Nc1ccc2[nH]c(=O)[nH]c2c1	8	3	i	-4	-14	-4	2	-11
O=C(O)CC1S/C(=N/N=C/c2ccc([N+](=O)[O-])cc2)N(c2ccc(O)cc2)C1=O (stereo not drawn)	4	3	i	-6	.	1	-4	-2
O=c1cnnc(N/N=C/C2CC=CCC2)[nH]1 (stereo not drawn)	0	3	i	-5	-7	10	9	5
O=C(Cn1c(=O)oc2ccccc21)N(Cc1ccccc1)C1CCS(=O)(=O)C1 (stereo not drawn)	-1	-5	i	-5	2	3	-11	.
Cc1ccc(N2C(=O)C(CC(=O)Nc3cccc(F)c3)N(C3CC3)C2=O)cc1 (stereo not drawn)	4	2	i	3	-17	-7	2	-70
Cc1ccc(S(=O)(=O)N(C)CC(=O)NNC(=O)CCC(=O)c2ccc(F)cc2)cc1	4	4	.	-14	-3	.	.	-5
O=C(NC1CCSc2ccccc21)c1ccccc1Br (stereo not drawn)	3	0	i	-14	-10	2	-5	22
CC(C)C(C)NC(=O)CN1C(=O)NC2(CCCCCC2)C1=O (stereo not drawn)	0	0	i	4	.	0	2	-9
Cc1cc2nc(-c3ccc(SCc4ccccc4C#N)nc3)[nH]c2cc1C	-1	-9	i	63	-8	-6	8	.
CCCNC(=O)C1(C)CCCN(Cc2ccc3ccccc3c2)C1 (stereo not drawn)	0	2	.	.	-12	.	.	17
CCOC(=O)c1c(-c2ccc(OC)cc2)oc2cc(Br)c(O)cc12	0	-6	i	-2	-6	10	-10	-8
Cn1nc(C(=O)NNC(=O)COc2ccccc2)c2ccccc2c1=O	5	5	i	-13	.	-5	6	-2
CCCNC(=O)c1c(N)n(-c2ccc(S(N)(=O)=O)cc2)c2nc3ccccc3nc12	1	4	+	1	-1	8	-3	.
COc1ccccc1NC(=O)C1=C(C)NC(=O)NC1c1ccc(C)cc1 (stereo not drawn)	2	5	.	4	0	7	4	14
COc1ccc(CCNC(=O)CSc2ccc(-c3cccs3)nn2)cc1	-1	-1	i	2	.	-3	5	-2
O=C(C1CC1)N1CCN=C1SCc1cccc(C(F)(F)F)c1	-5	-19	i	.	-1	6	-3	.
CC(=O)Oc1ccc(S(=O)(=O)c2ccc(OC(C)=O)cc2)cc1	-5	-4	i	-2	5	-7	1	-5
Cc1ccc2nc(SCC(=O)N3CCCC3)nc(=O)n2c1	-1	1	i	-16	-15	.	.	8
Cc1cccc(NS(=O)(=O)c2ccc(C(=O)NCCCN3CCOCC3)cc2)c1C	4	-6	i	.	-6	4	-11	-3
Cc1nc(-c2cn[nH]c2)c2cc(C)oc2n1	-2	-7	i	11	-9	0	-4	.
CCOC(=O)C(C(=O)OCC)C1CCS(=O)(=O)C1 (stereo not drawn)	7	6	i	.	-18	8	4	2
O=C(Nc1cccc(Cl)c1)NC1CC2CCC(C1)N2Cc1cccs1 (stereo not drawn)	2	3	i	11	.	-9	5	9
COC(=O)[C@H](CCSC)NC(=O)Cn1cc(C)c(=O)[nH]c1=O	1	5	.	.	1	.	.	21
CC1CC(C)(C)CC2(C1)NC(=O)N(CC(=O)NCC(c1ccco1)N1CCCCC1)C2=O (stereo not drawn)	1	0	.	3	13	-2	1	16

Screens as filed in PubChem.

Not all compounds are listed; count on the stated rates, not on these rows.
